From PubChem BioAssay
D2 ag = human D2 receptor agonism in beta-arrestin assay; P14416; DiscoveRx PathHunter D2 beta-arrestin, luminescence, 90 min; 100% = 57 uM dopamine signal; activation, % (concentration not given with the values); 360,000 compounds, 0.084% hits; in the data active = activation above about 40%; inconclusive = about 15% to 40%; inactive = below about 15%; further: the text of the record calls up to 30% inactive
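DiscoveRx PathHunter D2 beta-arrestin cells (2,100/well) attached overnight, then compound-stimulated 90 min at 37 C in HBSS/10 mM HEPES/0.1% Tween-20 buffer; beta-galactosidase complementation read by luminescence after 1 h at ambient temperature. Dopamine 57 uM final (EC100) as control.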
TRPML1 ag = agonists of human TRPML1 channel | Q9GZU1 | TRPML1-expressing cells, Ca2+ dye fluorescence, FDSS; host cell line not named in the record; reference of the full effect not given here | activation, % (test concentration not listed) | 410,000 compounds, 0.12% hits | AID 624414; in the data active = activation above about 50%; inconclusive = about 30% to 50%; inactive = below about 30%; further: 0% is about no effect; the text of the record puts the active cut at 80%
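Tetracycline-induced TRPML1-DL cells are seeded and incubated overnight before loading with a no-wash Ca2+ dye and quencher. Agonist activity is taken from the 110 s fluorescence read following compound pin-transfer on an FDSS, before EC80 54-4 challenge.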
Six1-Eya2 blk = Six1/Eya2 interaction inhibition. AID 651725. AlphaScreen GST-Six1/His-Eya2 binding, biochemical; active compounds read low; control for the full effect not named in the record. Q15475+O00167. activity change, % (no concentration beside the values). 360,000 compounds, 0.56% hits; in the data active = activity change below about -65%; inconclusive = about -30% to -65%; inactive = above about -30%; further: on the % scale 0 is the no-effect control and ±100 the full control effect
Target sequence (O00167 whole entry, looked up): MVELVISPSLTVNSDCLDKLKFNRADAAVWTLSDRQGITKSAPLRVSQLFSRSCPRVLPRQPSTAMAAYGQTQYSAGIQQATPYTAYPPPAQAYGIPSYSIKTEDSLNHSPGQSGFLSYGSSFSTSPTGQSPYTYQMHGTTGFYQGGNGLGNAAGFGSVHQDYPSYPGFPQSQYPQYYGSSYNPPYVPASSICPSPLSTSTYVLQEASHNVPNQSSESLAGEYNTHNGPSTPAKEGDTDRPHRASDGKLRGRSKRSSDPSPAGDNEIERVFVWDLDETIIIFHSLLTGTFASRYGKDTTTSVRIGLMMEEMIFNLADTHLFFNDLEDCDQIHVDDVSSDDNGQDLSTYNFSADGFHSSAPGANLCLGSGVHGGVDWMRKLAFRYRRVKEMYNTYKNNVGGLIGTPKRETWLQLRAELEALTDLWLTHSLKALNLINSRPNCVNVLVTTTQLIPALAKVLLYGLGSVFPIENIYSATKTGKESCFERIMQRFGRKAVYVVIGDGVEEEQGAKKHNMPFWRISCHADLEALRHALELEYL
Target sequence (Q15475 whole entry, looked up): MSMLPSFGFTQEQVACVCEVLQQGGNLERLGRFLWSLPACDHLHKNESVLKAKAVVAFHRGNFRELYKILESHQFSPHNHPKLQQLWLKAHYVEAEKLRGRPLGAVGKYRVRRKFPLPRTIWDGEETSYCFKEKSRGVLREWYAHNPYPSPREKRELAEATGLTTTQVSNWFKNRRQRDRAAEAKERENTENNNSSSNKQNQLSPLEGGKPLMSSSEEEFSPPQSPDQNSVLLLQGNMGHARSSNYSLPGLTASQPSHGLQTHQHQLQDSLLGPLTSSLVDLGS
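GST-Six1 + His-Eya2 (5X stock: 250/500 nM); Tris pH 8.0, 300 mM NaCl, 0.05% BSA, 0.02% Tween 20; GSH donor/Ni acceptor beads; 1 h 37 °C dark; AlphaScreen readout.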
D2 potentiator = potentiates the human D2 dopamine receptor allosterically. DiscoveRx D2 beta-arrestin cells, luminescence, 90 min; 100% = 57 uM dopamine signal. potentiation, % (no concentration beside the values). P14416. 360,000 compounds, 0.23% hits; active = potentiation of 50% or more; inconclusive = 30% to 50%; inactive = 30% or less;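 further: compound concentration not given in the record; tested on top of an EC20 dose of dopamine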
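D2 cells co-treated with compound plus 50 nM dopamine (EC20) for 90 min at 37 deg C to detect potentiation. Beta-arrestin recruitment was read as enzyme-fragment luminescence after 1 h at ambient temperature. Full response was set by 57 uM dopamine.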
CtBP-E1A blk = inhibitors of CtBP/E1A interaction. AID 651724. AlphaScreen GST-E1A/His-CtBP binding, 1536-well; active compounds read low; control for the full effect not named in the record. activity change, % (test concentration not listed). 340,000 compounds, 0.49% hits; in the data active means activity change below about -65%; inconclusive means about -30% to -65%; inactive means above about -30%; further: on the % scale 0 is the no-effect control and ±100 the full control effect
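In 5 uL wells, 23 nL compound meets equimolar GST-E1A and His-CtBP (5X stock 125 nM each) for 2 h, 37 °C. Beads (5X, 50 ug/mL) then 1 h, 37 °C, dark.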
PINK1 modulator = PINK1 expression modulation | Potency, µM (top dose mostly 76.6 µM), without a hit: top-dose activation (PINK1 increase), most hits filed as activators | 410,000 compounds, 0.2% hits | PINK1 immunofluorescence, high-content cytometry, 24 h; active = well fitted activation curve with a large enough effect; inconclusive = small, poorly fitted or top-dose-only effect; inactive = flat fitted curve, though single readings scatter; cell line not stated here;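 further: potency means the concentration at half of the fitted maximal effect; % of control where 0% means no effect; nearly all actives have a fitted effect of over 65% in size; a mitochondrial uncoupler was the plate control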
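A stable cell line was treated with compounds at 5 concentrations for 24 hours, with CCCP as control. PINK1 levels and mitochondrial localization were measured by immunofluorescence with mitochondrial, cell and nuclear markers after fixation, read by laser-scanning cytometry.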
Active calls of the source: *; u = inconclusive; x = no result given; [ ] = dose if it differs, or a comment.

Every second line gives: D2 ag, TRPML1 ag, Six1-Eya2 blk, D2 potentiator, CtBP-E1A blk, PINK1 modulator
CC(C)(C)NC(=O)C(c1ccccc1)N(Cc1cccs1)C(=O)c1csnn1 (stereo not given)
  -1.1, -0.3, 2.1, -9.4, 4.6, -1.4%
CC(C)N1CCc2c(sc(NC(=S)NC(=O)c3ccccc3)c2C#N)C1
  -9.0, 1.5, 16.8, -8.7, -16.0, -0.9%
CCOC(=O)C1=C(C)NC(=O)NC1c1ccc(Br)s1 (stereo not given)
  -2.7, 0.2, 9.5, -0.9, 9.2, 6.1%
CCC(C(=O)NCCc1ccc(OC)cc1OC)n1nc(C)n2c(cc3occc32)c1=O (stereo not given)
  1.3, 0.8, 5.9, -13.8, -16.3, 0.6%
CC(=O)c1sc(NC(=O)CN2C(=O)C3CCCCC3C2=O)nc1-c1ccccc1 (stereo not given)
  -2.0, -0.2, 1.1, -4.5, x, 0.7%
CC(=O)c1cc2c(cc1F)C(C)(C)CCC2(C)C
  -2.3, 0.0, 1.9, -26.4, 0.6, 10.6%
O=C(CCSc1nnc(-c2ccncc2)o1)Nc1ccccc1
  0.5, 4.2, 4.9, 16.6, -1.5, -0.9%
C=C1[C@H]2O[C@H]2[C@@H](OC(C)=O)[C@@]2(C)[C@@H](OC(C)=O)C[C@@H](OC(C)=O)[C@@](C)(O)[C@@H]2[C@@H](OC(C)=O)[C@@]2(O)[C@@H](C)C(=O)O[C@H]2[C@H]1Cl
  -0.6, 0.6, -2.8, -3.8, 2.6, -0.2%
CC(=O)Nc1ccc(Sc2ccccc2C(=O)O)cc1
  -4.4, -0.1, -12.0, -1.5, -25.2, -1.3%
O=C(NCc1ccccc1)C1=C[C@@H](c2ccc(C(F)(F)F)cc2)C[C@@H](OCc2ccc(CO)cc2)O1
  -0.6, 2.3, -1.5, -5.2, -19.2, 13.8%
Cc1cc(-c2csc(N)n2)c(C)n1CCc1ccccc1
  -3.9, 0.3, -8.7, -6.7, -8.1, 1.0%
COC(=O)/C(=C\Nc1ccc(Cl)cc1Cl)NC(=O)c1ccccc1
  -4.7, 0.2, -14.5, -24.2, -9.8, 5.2%
O=C(O)C1CCN(S(=O)(=O)c2ccc(Cl)s2)CC1
  -1.2, -0.3, 6.5, 1.4, 7.3, -1.6%
O=[N+]([O-])c1ccc2c(c1)nc1n2CCSC1
  -5.0, -0.7, 8.3, -7.5, 1.4, 0.4%
CCN(CC(=O)NC(C)C)C(=O)c1cc(S(=O)(=O)N2CCCCC2)ccc1N1CCCCC1
  2.6, -0.9, 7.6, -1.5, 6.0, -0.3%
CCOc1cc(C2NC(=O)NC(C)=C2C(=O)NCc2ccccc2)c(Cl)cc1O (stereo not given)
  -3.2, 0.4, 0.0, -9.3, 5.9, u
COc1ccccc1OCCCC(=O)Nc1nccs1
  -3.2, 0.5, -0.4, -9.3, 1.4, 2.2%
CC(CCc1ccccc1)NC(=O)CSc1ccccn1 (stereo not given)
  -7.4, 0.3, 10.6, -2.6, 4.7, 3.1%
C=CCOCCN1C(=O)C2C(c3ccccc3)C=CC(c3ccccc3)C2C1=O (stereo not given)
  -7.3, 0.5, -12.8, -22.7, -2.2, -0.1%
O=c1cc2oc3cc(O)c(O)cc3c(-c3ccccc3O)c-2cc1O
  3.0, 16.2, u, -16.1, x, 6.6%
COc1ccc(S(=O)(=O)Nc2c(O)ccc3ccccc23)cc1OC
  u, -0.2, -13.6, 106.9*, 5.2, -0.5%
COc1coc(/C=C/C(=O)O)cc1=O
  -4.5, -0.2, -4.5, -1.9, -25.8, 0.6%
CCN1CCN(C2CCCCC2NS(=O)(=O)c2ccc(Cl)cc2)CC1 (stereo not given)
  -0.5, 0.5, 5.9, -28.7, -9.7, -0.8%
Nc1ncnn1Cc1ccccc1
  -2.4, 0.0, 1.6, -4.7, 4.7, -0.7%
COc1cc(C2Nc3ccccc3C(=O)N2c2ccccc2)ccc1O (stereo not given)
  5.3, -0.2, 2.6, -23.2, -2.8, -0.3%
O=[N+]([O-])c1ccc(O)c(/C=N/Nc2nn[nH]n2)c1
  -4.5, 0.5, -74.2*, -20.2, u, 0.9%
CCCS(=O)(=O)c1c(S(=O)(=O)CCC)c2c(C)cccn2c1C(=O)OC
  -3.1, 0.4, -2.8, 1.8, -10.6, x
CCC1(c2ccc(F)cc2)NC(=O)N(CC(=O)NCc2ccc(F)cc2)C1=O (stereo not given)
  0.3, 0.0, 2.8, -17.9, -3.5, 4.0%
C(=N\n1cnnc1)/c1ccc(OCc2cccc3ccccc23)cc1
  4.1, 2.9, -14.3, u, -0.7, 0.2%
COc1ccc(CNC(=O)CN(c2ccc(C(C)=O)cc2)S(=O)(=O)c2ccc(C)cc2)cc1OC
  -0.3, 0.0, 3.7, -13.9, 10.0, 1.8%

Part of the list above, set out differently.
mol	D2 ag	TRPML1 ag	Six1-Eya2 blk	D2 potentiator	CtBP-E1A blk	PINK1 modulator
CC(C)(C)NC(=O)C(c1ccccc1)N(Cc1cccs1)C(=O)c1csnn1 (stereo not given)	-1.1	-0.3	2.1	-9.4	4.6	-1.4%
CC(C)N1CCc2c(sc(NC(=S)NC(=O)c3ccccc3)c2C#N)C1	-9.0	1.5	16.8	-8.7	-16.0	-0.9%
CCOC(=O)C1=C(C)NC(=O)NC1c1ccc(Br)s1 (stereo not given)	-2.7	0.2	9.5	-0.9	9.2	6.1%
CCC(C(=O)NCCc1ccc(OC)cc1OC)n1nc(C)n2c(cc3occc32)c1=O (stereo not given)	1.3	0.8	5.9	-13.8	-16.3	0.6%
CC(=O)c1sc(NC(=O)CN2C(=O)C3CCCCC3C2=O)nc1-c1ccccc1 (stereo not given)	-2.0	-0.2	1.1	-4.5	x	0.7%
CC(=O)c1cc2c(cc1F)C(C)(C)CCC2(C)C	-2.3	0.0	1.9	-26.4	0.6	10.6%
O=C(CCSc1nnc(-c2ccncc2)o1)Nc1ccccc1	0.5	4.2	4.9	16.6	-1.5	-0.9%
C=C1[C@H]2O[C@H]2[C@@H](OC(C)=O)[C@@]2(C)[C@@H](OC(C)=O)C[C@@H](OC(C)=O)[C@@](C)(O)[C@@H]2[C@@H](OC(C)=O)[C@@]2(O)[C@@H](C)C(=O)O[C@H]2[C@H]1Cl	-0.6	0.6	-2.8	-3.8	2.6	-0.2%
CC(=O)Nc1ccc(Sc2ccccc2C(=O)O)cc1	-4.4	-0.1	-12.0	-1.5	-25.2	-1.3%

Continued.
Every second line gives: D2 ag, TRPML1 ag, Six1-Eya2 blk, D2 potentiator, CtBP-E1A blk, PINK1 modulator
COc1ccc(/C=C(/NC(=O)c2ccccc2)C(=O)N/N=C/c2ccncc2)cc1
  0.4, 0.9, -3.0, -2.0, 3.3, -0.6%
O=C(CCc1nc2ccccc2s1)NC1CCOC1=O (stereo not given)
  -2.9, x, -0.9, -4.9, 1.6, 1.4%
Cc1ccc2nc(-c3ccccc3N)[nH]c2c1
  2.7, -0.7, -3.7, -2.6, 2.3, -1.1%
Cc1nnc2c(-c3ccccc3)nc3ccccc3n12
  -1.7, 1.2, -13.7, -27.9, -2.6, 4.3%
Cc1nonc1C1CCCN1Cc1nc(-c2ccccc2Cl)oc1C (stereo not given)
  0.4, 0.8, 1.2, 2.1, x, 2.4%
CNS(=O)(=O)c1cccc(C(=O)OC2CCCCC2=O)c1 (stereo not given)
  -0.9, -0.6, 10.8, -4.3, 2.5, -0.6%
CC(C)(C)C1(C)OC(C(N)=O)C(C(N)=O)O1 (stereo not given)
  -2.8, -0.6, 5.3, -1.5, 7.7, -1.1%
Cc1ccc(S(=O)(=O)Nc2nc(C)c(C(=O)Nc3ccccc3)s2)cc1
  -0.5, -0.9, -11.9, 0.3, x, -0.2%
CN(C)C1(CNC(=O)C2CCN(S(=O)(=O)c3c(Cl)cccc3Cl)CC2)CCCCC1
  -2.8, -0.2, 3.9, -26.1, -1.8, -4.3%
O=c1c2c3c(sc2ncn1/N=C/c1ccc([N+](=O)[O-])o1)CCCC3
  0.3, -0.3, -0.7, 14.8, 7.5, 4.3%
COC(=O)Cc1ccc(NC(=S)Nc2ccc(N3CCOCC3)cc2)cc1
  -0.7, 0.2, -6.4, 1.0, 10.3, -0.6%
CC(=O)Nc1ccc(S(=O)(=O)N(C)c2ccccc2)cc1
  0.6, 2.5, -1.4, -4.3, 3.8, -1.8%[38.3 µM]
O=C1CC(=O)C(n2cncn2)C(c2c(F)cccc2Cl)C1 (stereo not given)
  2.8, -0.6, 5.1, -6.0, 0.6, -1.4%
CC(=O)c1c(C)[nH]c(C(=O)OCC(=O)NCCC(C)C)c1C
  -3.0, 0.2, 5.7, -12.1, -5.4, 17.7%
CC1(C)NC(=O)N(CCCSc2ccc(Cl)cc2)C1=O
  2.8, -0.2, -0.5, 2.5, 10.5, u
CCOC(=O)c1c(S(=O)(=O)Nc2ccc(F)cc2C)c(C)n(C)c1C
  1.8, -0.3, -5.3, -1.1, 3.6, -0.2%
Cn1nnnc1SCc1nnc(-c2ccc(F)cc2)o1
  2.5, 0.1, 4.5, -24.7, 3.1, -1.1%
COc1ccccc1Nc1nnc(SCc2cc(=O)n3cc(C)ccc3n2)s1
  -4.6, -0.8, -6.2, 3.6, -12.5, 5.3%
c1ccc(C2=Nc3cccnc3C(c3ccccc3)=NN2)cc1
  0.5, -0.7, -5.6, -1.1, -0.9, -0.2%
CCn1c(SCC(=O)Nc2cc(C)on2)nc2c([nH]c3ccccc32)c1=O
  -4.0, -0.6, 2.9, -18.0, 6.2, 10.1%
CCC(=O)NC(=S)Nc1ccc(NC(=O)COc2ccc([N+](=O)[O-])cc2)cc1
  -7.7, -0.1, -1.3, -10.6, x, 0.3%
O=C(Nc1cnn(Cc2ccccc2)c1)NC12CC3CC(CC(C3)C1)C2
  -3.9, -1.0, -0.6, 7.0, 3.7, -2.9%
Cc1onc(-c2c(F)cccc2Cl)c1C(=O)OCC(=O)c1c[nH]c2ccccc12
  -1.7, 0.8, -12.9, -0.2, -12.0, 7.2%
CC(=O)c1cc(-c2ccccc2)n(CCC(=O)NC(C)(C)C)c1C
  0.8, -0.1, -7.4, -9.2, 0.0, 0.6%
COc1ccc(NC(=O)c2nc[nH]c2C(=O)Nc2ccccc2C)cc1
  0.2, -0.7, 4.8, 11.7, 9.1, 10.9%
CCc1nc(C)cn1S(=O)(=O)c1cc(F)ccc1OC
  -1.5, 0.3, 1.5, 1.1, 7.2, -0.5%
O=C(Nc1ccc(F)cc1)c1cc(S(=O)(=O)N2CCCCC2)cs1
  -5.5, 0.4, 1.0, -12.6, 3.6, -0.8%
CCCC(=O)Nc1ccc(-c2cnc(-c3ccc(NC(=O)CCC)cc3)nc2)cc1
  0.2, 0.3, 2.7, -1.2, 3.5, -2.4%
O=C(/C=C/c1ccccc1[N+](=O)[O-])NCCCN1CCCC1=O
  -6.5, 0.1, 1.2, -17.5, -1.7, -0.8%
COCCNS(=O)(=O)c1ccc(C2CNC(=O)C2)cc1 (stereo not given)
  2.6, 0.6, -1.0, -2.1, 3.2, 1.5%
